# Vaccinia mCherry: inhibitors of vaccinia virus infection (mCherry reporter signal) | Potency, µM (top dose mostly 36.5 µM), for inactives: at the top dose activity change, negative = inhibition, hits mostly inhibitors | 310,000 tested, 0.63% active | Vaccinia virus mCherry reporter infection, fluorescence; about a quarter of the inactives have no number; active = well fitted inhibition curve with a large enough effect; inconclusive = small, poorly fitted or top-dose-only effect; inactive = no such curve, though single readings can be large or run the other way; tested in A549 cells; note: nearly all actives have a fitted effect of over 35% in size; inactives centre near -10
# Vaccinia Venus: inhibitors of vaccinia virus (Venus reporter). Vaccinia virus Venus reporter expression, fluorescence. AID 720580. Potency, µM (doses to about 36.5 µM), for the others: top-dose activity change, negative = inhibition, actives largely listed as inhibitors. 330,000 tested, 0.46% active; active means well fitted inhibition curve with a large enough effect; inconclusive means small, poorly fitted or top-dose-only effect; inactive means no such curve, though single readings can be large or run the other way; tested in A549 cells; note: nearly all actives have a fitted effect of over 30% in size; inactives centre near -10
# The depositor's hits bear a star; i = inactive; ? = inconclusive; nt = not tested or not shown; & = joins results of further samples; [ ] = remark or other dose. % is set by controls: 0 for no effect and ±100 for the full control effect; potency is the fitted concentration of half-maximal effect.
compound,Vaccinia mCherry,Vaccinia Venus
COC(=O)C1=C(C)N(Cc2ccccc2)C(=NCc2ccc3c(c2)OCO3)N[C@H]1c1ccccc1,-13%,-29%
COc1ccc(/C=C/C(=O)C(C)(C)C)cc1OC,-16%,-17%
CC(=O)c1cccc(NC(=O)c2oc3c(c2C)-c2nn(Cc4ccc(Cl)cc4)cc2CC3)c1,-2%,-5%
Cc1cc(C)n(CC(O)CN2c3ccccc3Sc3ccccc32)n1 (stereo unspecified),-28%,-12%
COC(=O)c1nnn(CC(=O)NC(=O)Nc2cccc(C)c2C)c1C(=O)OC,0%&-10%,-2%&-7%
COc1cc(/C=C/C(=O)Nc2cccc(S(=O)(=O)NC3=NCCCCC3)c2)ccc1OCC#N,-29%,-8%
O=C(c1ccco1)N1CCN(c2ccc(S(=O)(=O)N3CCCC3)cc2)CC1,0%,-20%
CSc1ccc(CNC(=O)Cn2c(-c3cccs3)cc3cc(F)ccc32)cc1,-6%,-15%
CC(C)(CC(=O)O)CC(=O)N1CCCN(c2nc3ccc(Cl)cc3s2)CC1,-3%,-16%
COc1cc(/C=N/N=C/c2cc(OC)c(O)c(OC)c2)cc(OC)c1O,i,-11%
CC(=O)NCCNc1nc2cc(-c3ccccc3C)sc2c(=O)n1C,i,-7%
CCN(CC)C(=O)[C@H]1CC(CC(=O)NCCC2=CCCCC2)C(=O)N2CCc3c([nH]c4ccccc34)[C@]12C (stereo partly specified),?,?
Cn1nnnc1SCC(=O)Nc1ccccc1C(=O)NCc1ccccc1,-15%,-7%
Cc1sc(NC(=O)C2CCCC2)c(C#N)c1C,-2%,-13%
O=C(NC1CCCC1)C1CC(=O)N(c2ccccc2)C1 (stereo unspecified),-3%,-4%
COCCn1c(SCC(=O)N2CCCC2)nnc1-c1ccco1,16%,-8%
c1nc(NC2CCCC2)c2[nH]cnc2n1,-14%&-17%,?
CCOC(=O)c1c(C)oc2nc(C)nc(NCCCN3CCN(c4cc(Cl)ccc4C)CC3)c12,-15%,-7%
CCOc1ccc(Br)cc1S(=O)(=O)Nc1ccc(C(=O)Nc2ccccc2OC)cc1,?,-22%
O=C(Nc1ccc2c(c1)OCO2)C1CC(=O)N(c2ccc(F)cc2)C1 (stereo unspecified),-20%,-1%
Clc1cccc(N2Cc3cc(-c4ccccc4)ccc3-n3nncc3C2)c1,1%,5%
CN(CCNS(=O)(=O)c1ccc2c(c1)oc(=O)n2C)Cc1ccccc1,2%,-2%
Cc1ccc(NC(=O)C2CCN(S(C)(=O)=O)CC2)cc1C,-13%,-15%
OCC1(Cc2cccc(F)c2)CCN(Cc2ccc3cccc(F)c3n2)CC1,-18%,-15%
CCOC(=O)c1cc2sccc2n1CC(=O)Nc1ccc(OC)c(OC)c1,-8%,-1%
Cc1ccc(-n2nc3c(=O)n(C(C)C(=O)NCc4ccco4)nc(C)c3c2C)cc1 (stereo unspecified),-21%,-17%
COc1ccccc1N1CCN(S(=O)(=O)CCNC(=O)CC2CCCCC2)CC1,?,-25%
CCC(=O)NC(c1ccccc1)c1c(OC(C)=O)ccc2ccccc12 (stereo unspecified),-14%,-11%
CCOC(=O)c1sc(NC(=O)CSc2nnnn2-c2ccccc2)c(C(=O)OCC)c1C,-10%,1%
COc1ccc(Cn2cc([N+](=O)[O-])nc2C)cc1[N+](=O)[O-],-13%,-5%
CNS(=O)(=O)c1ccc(NC(=O)Nc2ccc3c(c2)OCO3)cc1,-11%,-27%
Cc1cc(O)cc(O)c1C(=O)Cc1ccccc1,-27%,-22%
Cc1ccccc1OCCCn1c(=O)sc2ccccc21,-3%,-16%
Oc1ccccc1-[n+]1c(-c2ccccc2)cc(-c2ccccc2)c(O)c1-c1ccccc1,?,-9%
Cn1nnnc1NCc1cccc(Cl)c1Cl,-3%,-12%
CCCCCCC1(C)NC(=S)N(c2ccccc2)N1 (stereo unspecified),-20%,9%
CCO[C@H]1OC(C(=O)NCc2nc3ccccc3[nH]2)=C[C@@H](C)[C@@H]1CCCO,i,-3%
CCOc1ccc2nc(NC(=O)COc3ccc(N(C)S(=O)(=O)c4ccc(C)cc4)cc3)sc2c1,-4%,-3%
COc1cccc(C(=O)Oc2cc3c4c(c2)C(C)=CC(C)(C)N4C(=O)C3=O)c1,i,-17%
O=C(CSc1ccc(-c2ccco2)nn1)NCCc1ccccc1,0%,-19%
O=C(c1cc(-c2cccc(Cl)c2)on1)N1CCCCC1,-5%,-8%
Cc1c(C(=O)N2CCCCCC2(C)C(=O)NCC(C)C)oc2ccccc12 (stereo unspecified),32%,-9%
O=C(O)/C(=C\c1cccc(F)c1)c1ccc(S(=O)(=O)N2CCCCC2)s1,-12%,-7%
COCCn1c(SCCCC(=O)c2ccc(Br)cc2)nnc1-c1ccncc1,-27%,-18%
CCCN(CCC)CCCn1c(=O)[nH]c2ccccc21,i,-7%
Cc1ccccc1NC(=S)N/N=C/C(C)c1ccccc1 (stereo unspecified),-17%,-14%
Cn1c(CNC(=O)c2ccccc2F)nnc1SCc1ccc(F)cc1,-22%,-11%
CC(C)=N/N=c1\scc(C)n1Cc1ccco1,-2%,2%
CCCc1nc2c(s1)CCc1onc(-c3ccc(OC)cc3)c1-2,?,-8%
C=C[C@@H]1C2=CCOC(=O)C2=CO[C@H]1O[C@@H]1O[C@H](CO)[C@@H](O)[C@H](O)[C@H]1O,0%,-15%

# Next results follow:
compound,Vaccinia mCherry,Vaccinia Venus
Cc1cccc(CN(CC(=O)N/N=C/c2cccs2)S(=O)(=O)c2ccc(Cl)cc2)c1,nt,?
c1ccc(Nc2nc(NCC3CCCO3)c3ccccc3n2)cc1 (stereo unspecified),?,-25%
CNC(=O)C1CCC(Cn2c(=O)c3sccc3n(CC(=O)Nc3ccc(C)c(F)c3)c2=O)CC1 (stereo unspecified),-20%,-24%
CC=CCn1c(SCCCc2ccccc2)nc2c1c(=O)[nH]c(=O)n2C,4%,-15%
Cc1noc(C)c1S(=O)(=O)N(C)C[C@H]1Oc2ccc(NC(=O)C3CCCCC3)cc2C(=O)N([C@H](C)CO)C[C@@H]1C,?,-15%
O=C(NCCc1cccc(C(F)(F)F)c1)C1CCC(=O)N(C2CC2)C1 (stereo unspecified),-14%,-12%
Cc1ccc2nc(NC(=S)NC(=O)c3ccco3)sc2c1,-7%,-10%
O=C(CCC1CCCCC1)NCc1ccc(F)cc1,i,-14%
Cc1cccc(OCCC(=O)NO)c1,-12%,-3%
CCc1cccc(C)c1NC(=S)NCC(c1cccnc1)N(C)C (stereo unspecified),i,6%
CCCn1cnc2scc(-c3ccc(C)c(C)c3)c2c1=O,i,-14%
CCc1ccc(NC(=O)Cn2c(=O)n(CCC(=O)N3CCc4ccccc4C3)c(=O)c3ccccc32)cc1,-28%,-25%
CCc1nnc(SCC(=O)Nc2ccccc2)n1CC1CCCO1 (stereo unspecified),-3%,-9%
Cc1ccc(/C=C/C(=O)NCc2ccncc2)cc1,i,?
COc1ccccc1N(C)C,i,-13%
Nc1nc(SCC(=O)Nc2ccc(S(N)(=O)=O)cc2)n[nH]1,i,-10%
O=C(CSc1nnc(CNC(=O)c2ccccc2)n1-c1cccc(Cl)c1)Nc1ccccc1F,-3%,6%
COc1ccc(CC(=O)Nc2nnc(-c3cccc([N+](=O)[O-])c3)s2)cc1,-11%,6%
O=C(NCCCn1ccnc1)c1ccc(Cl)cc1[N+](=O)[O-],-6%,13%
Cc1ccc(CNC(=O)C2CCN(S(=O)(=O)Cc3ccccc3)CC2)cc1,-10%,-2%
O=C(Nc1cc(=O)[nH]c(=O)[nH]1)c1cccc(Br)c1,2%,3%
Cc1cccc(C2=NNC(=O)C(c3ccc(Cl)cc3)C2)c1 (stereo unspecified),i,-7%
CCN1C=C(Cc2ccccc2C)C2=C(C1)C(c1ccccc1C)C(C#N)=C(N)O2 (stereo unspecified),nt,-28%
CC(=O)c1ccc(N2CCN(C(=O)C3CCN(S(=O)(=O)c4cccs4)CC3)CC2)cc1,i,-9%
O=C(Cc1c[nH]c2ccccc12)N1CCN(S(=O)(=O)c2ccc(Cl)cc2)CC1,?,-4%

# One compound at a time, as listed above:
# CC(C)(CC(=O)O)CC(=O)N1CCCN(c2nc3ccc(Cl)cc3s2)CC1 is listed with Vaccinia mCherry = -3%; Vaccinia Venus = -16%
# COc1ccc(CC(=O)Nc2nnc(-c3cccc([N+](=O)[O-])c3)s2)cc1 is listed with Vaccinia mCherry = -11%; Vaccinia Venus = 6%

# The listing continues:
compound,Vaccinia mCherry,Vaccinia Venus
O=C(NCc1n[nH]c(=O)c2ccccc12)C1CC(=O)N(c2ccccc2)C1 (stereo unspecified),i,-10%
O=C(COC(=O)c1ccc(O)cc1O)NC1CCS(=O)(=O)C1 (stereo unspecified),-3%,-3%
COCCN(C(=O)COC(=O)CSc1ccc(Cl)cc1)c1c(N)n(Cc2ccccc2)c(=O)[nH]c1=O,-25%,-20%
O=C(/C=C/c1ccccc1[N+](=O)[O-])NC1CCCC1,i,-6%
Cc1ccc(N(C=NC#N)CC(=O)N2CCN(c3ccccc3)CC2)cc1,-18%,-2%
CCCN(CC(=O)Nc1cc(Cl)ccc1Cl)C(=O)c1ccccc1SCC(=O)N1CCCC1,i,-7%
CCn1cc2nc(SCc3cc(C)ccc3C)n(Cc3ccc(OC)cc3)c(=O)c2n1,?,?
CCN(Cc1ccccc1)C(=O)CSc1nc(C)cc(=O)[nH]1,-6%,-5%
CCN1CCN(C(=O)CN(c2ccccc2C)S(C)(=O)=O)CC1,-13%,-8%
O=C(Nc1nc2ccccc2[nH]1)c1cccs1,-8%,-3%
Cc1ccc(-n2ncc3c(NCCO)ncnc32)cc1Cl,-11%,-1%
Cc1ccc(-c2cnc3cccnn23)cc1F,33%[activator],-8%
Cc1ccc(S(=O)(=O)c2nc(-c3ccco3)oc2SCC(=O)c2ccc(Cl)cc2)cc1,-11%,-11%
O=C(CSc1nc2cccnc2n1Cc1ccccc1)NCc1ccco1,i,-19%
Cc1ccccc1C(=O)Nc1sc2c(c1C(=O)O)CCC(C(C)(C)C)C2 (stereo unspecified),?,-27%[7.34 µM]
CN(C)C(=O)/C(C#N)=C\c1cc(Br)c(Sc2ccc(Cl)cc2)o1,i,-4%
O=C(COc1ccc(F)cc1Br)NCC1(N2CCCCC2)CCCCC1,?,-21%
COc1cc(NC(=O)CSc2nnc(Cn3nnc4ccccc43)n2C)cc(OC)c1,-11%,-3%
CC1CCN(CC(=O)NCc2ccco2)CC1,-1%,-2%
COc1ccc(OCCSCc2nnc(NC(=O)Nc3ccc(Cl)cc3)s2)cc1,-12%,-3%
CCSc1oc(-c2ccccc2)nc1S(=O)(=O)c1ccccc1,-12%,-9%
O=C(NCCc1csc(-c2cccnc2)n1)c1ccco1,i,-12%
CCOc1cc2[nH]c(=O)n(Cc3cccc(OC)c3)c(=O)c2cc1OCC,-17%,-18%
Cc1noc(C)c1S(=O)(=O)N(C)C[C@H]1Oc2ccc(NC(=O)Cc3ccccc3)cc2C(=O)N([C@H](C)CO)C[C@@H]1C,-13%,-11%
CCCOC(=O)C1=C(C)NC2=C(C(=O)C(C(=O)OC)C(C)C2)C1c1ccc(N(CC)CC)cc1 (stereo unspecified),-19%,-21%

# A few values from the results shown:
# Vaccinia Venus with `CCSc1oc(-c2ccccc2)nc1S(=O)(=O)c1ccccc1` is entered as -9%
# Vaccinia Venus with `COCCN(C(=O)COC(=O)CSc1ccc(Cl)cc1)c1c(N)n(Cc2ccccc2)c(=O)[nH]c1=O` is entered as -20%
# Vaccinia Venus with `COc1ccc(OCCSCc2nnc(NC(=O)Nc3ccc(Cl)cc3)s2)cc1` is entered as -3%

# Next section
compound,Vaccinia mCherry,Vaccinia Venus
CCn1c(C2CC(=O)N(c3cc(C)cc(C)c3)C2)nc2ccccc21 (stereo unspecified),12%,4%
O=C(CN1C(=O)c2ccccc2C1=O)NCC(=O)OCC(=O)c1ccc(Cl)cc1,-9%,-4%
Cc1ccc(O)c(N=Cc2sc3ccccc3c2Cl)c1,?,-25%
COc1cnc(NS(=O)(=O)c2ccc(N)cc2)nc1,-14%,-13%&0%
COc1cc(OC)cc(-c2c(C#Cc3ccsc3)c3cc(-c4cccc5[nH]ccc45)ccc3n2C)c1,-15%,-12%
Cc1ccc(C(N)=Nc2ccccc2)cc1,-17%,-11%
Cc1c(/C(O)=C2\C(=O)C(=O)N(CCN(C)C)C2c2cccs2)cnn1-c1ccccc1 (stereo unspecified),i,-8%
O=C(CCn1nc(-c2ccccc2)ccc1=O)N1CCN(c2ccccc2)CC1,i,-10%
Cc1cc(C)c(C#N)c(SCS(=O)Cc2ccccc2)n1 (stereo unspecified),-10%,4%
CCc1ccc(S(=O)(=O)N2CC(=O)Nc3ccccc32)cc1,-16%,-8%
CCc1nc(Nc2cccc(OC)c2)c2oc3ccccc3c2n1,-9%,-29%
O=C(N/N=C\c1ccncc1)c1ccc(Cl)s1,-26%,-22%
CCOc1ccc(C(=O)OCC(=O)N2CCOCC2)cc1OCC,i,-5%
CN(Cc1ccc(F)cc1)C(=O)c1cccc(NS(=O)(=O)c2ccccc2)c1,-19%,-18%
Cc1cc(C)nc(N(C#N)Cc2ccccc2C)n1,i,-5%

# Screening data: PubChem BioAssay, National Center for Advancing Translational Sciences (NCATS)
